VCAM-1 down: inhibitors of TNFa-induced VCAM-1 surface display, cell-based, plate reader, pooled HUVEC, TNFa stimulus (AID 454); HUVEC TNFa-induced VCAM-1 surface immunofluorescence, plate reader; numbers were filed only for top-ranked candidate wells; inhibition, % at 5 µM; 10,000 tested, 0.2% active;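 active = compound among top-ranked inhibitors of TNF-induced VCAM-1 adhesion protein staining, with the hit upheld by image or statistical review; inactive = the rest, including hits rejected on review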;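 note: 0% = TNFa with vehicle and 100% = cells without TNFa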
VCAM-1 imaging: inhibitors of TNFa-induced VCAM-1 surface display, imaging, high-content imaging, pooled HUVEC, TNFa stimulus (AID 456); HUVEC TNFa-induced VCAM-1 surface expression, immunofluorescence imaging; numbers were filed only for top-ranked candidate wells; inhibition, % at 5 µM; hits with a dose series show IC50 in µM; 10,000 tested, 0.2% active;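 active = top tenth filtered wells with inhibition above zero that passed visual or statistical confirmation; inactive = the rest, including hits rejected on review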;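 note: 0% = stimulated vehicle wells and 100% = unstimulated cells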
FPR ligand: ligands of human FPR, also counter-screen for FPRL1 ligands. P21462. inhibition, %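 (tested at 6.7 µM)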. 24,000 tested, 0.74% active. AID 440. FPR-expressing cells, fluorescent ligand binding, flow cytometry;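 note: 0% = buffer wells and 100% = receptor blocker peptide wells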
Target sequence (P21462 whole entry, looked up): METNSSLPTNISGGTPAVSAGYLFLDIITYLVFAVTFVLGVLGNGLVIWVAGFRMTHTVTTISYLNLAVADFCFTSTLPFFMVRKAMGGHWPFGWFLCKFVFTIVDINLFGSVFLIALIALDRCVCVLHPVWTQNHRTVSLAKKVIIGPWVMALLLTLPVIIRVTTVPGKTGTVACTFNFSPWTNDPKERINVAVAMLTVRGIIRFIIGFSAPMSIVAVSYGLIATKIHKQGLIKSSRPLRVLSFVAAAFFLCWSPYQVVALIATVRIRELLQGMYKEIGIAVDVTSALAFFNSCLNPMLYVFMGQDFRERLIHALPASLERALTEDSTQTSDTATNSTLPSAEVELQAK
VCAM-1 augmentation: boosters of cytokine-driven VCAM-1 levels – imaging, high-content imaging, pooled HUVEC, TNFa stimulus (AID 457) | Pooled HUVEC, TNFa-induced VCAM-1 immunofluorescence imaging; hits of this screen are not shown here | calls only | 10,000 tested, 0.2% active;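 active = a top-ranked rise in VCAM-1 staining upheld on image or statistical review; inactive = the rest, including candidates rejected on review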;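 note: compounds tested at 5 µM in the well; cells exposed to compound for 24 hours before fixing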
FPRL1 ligand: ligands of human FPRL1, also counter-screen for FPR ligands; P25090; FPRL1-expressing cells, fluorescent ligand binding inhibition, flow cytometry; inhibition, %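 (tested at 6.7 µM)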; 24,000 tested, 0.3% active; AID 441;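 note: 0% = buffer alone and 100% = receptor blocker peptide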
Target sequence (P25090 whole entry, looked up): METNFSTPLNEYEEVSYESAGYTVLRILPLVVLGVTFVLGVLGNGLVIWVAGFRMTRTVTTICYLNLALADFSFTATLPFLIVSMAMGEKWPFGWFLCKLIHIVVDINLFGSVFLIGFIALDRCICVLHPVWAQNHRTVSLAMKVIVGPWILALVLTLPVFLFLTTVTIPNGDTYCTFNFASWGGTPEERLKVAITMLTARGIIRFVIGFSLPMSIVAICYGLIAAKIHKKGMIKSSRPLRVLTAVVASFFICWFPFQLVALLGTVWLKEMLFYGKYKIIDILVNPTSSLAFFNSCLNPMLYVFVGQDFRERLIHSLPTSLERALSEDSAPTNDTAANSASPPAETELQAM
* marks the source's active call; other numbers are inactive results; i = inactive; ? = inconclusive; / = not tested or not shown.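 Rule for the calls, unless noted: active = mean above 30%; inconclusive = self-fluorescent; inactive = the rest.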 The list is partial. The share of hits here may be higher or lower than overall.

SMILES | VCAM-1 down | VCAM-1 imaging | FPR ligand | VCAM-1 augmentation | FPRL1 ligand
CCOC(=O)c1ccccc1NC1c2ccccc2C(=O)N1C1CCN(C(=O)OCC)CC1 (configuration not stated) | i | i | 12 | i | -4
Cn1c(C(=O)NCc2ccccn2)cc2c(=O)n(C)c3ccccc3c21 | / | / | -1 | / | -3
COc1ccc(S(=O)(=O)N2CCN(Cc3ccc4c(c3)OCO4)CC2)c2ccccc12 | / | / | 2 | / | 0
COCCNC(=O)CSc1nc2ccccc2c(=O)n1CCCC(=O)NCc1ccccc1 | / | / | 1 | / | 0
CCN1CCN(Cc2nc3c(c(=O)n(C)c(=O)n3C)n2CC(=O)c2ccccc2)CC1 | i | i | 0 | i | 0
CC(C)(C)C1CCc2[nH]nc(C(=O)O)c2C1 (configuration not stated) | i | i | 6 | i | 4
Cc1c(C(=O)OC2CCCC2C)[nH]c2c1C(=O)CCC2 (configuration not stated) | / | / | 6 | / | -8
COCCNc1nc(SCC(=O)N2CCN(c3ccccc3OC)CC2)nc2ccccc12 | / | / | -5 | / | -7
O=C(C1CCN(S(=O)(=O)N2CCOCC2)CC1)N1CCc2ccccc21 | / | / | 2 | / | -4
O=C(CCS(=O)(=O)c1cccc2nonc12)Nc1cccc2c1CCCC2 | i | i | -9 | i | -3
CCC(C)OC(=O)n1ccc(C(=O)Nc2nccs2)n1 (configuration not stated) | i | i | -6 | i | -3
CCCCCCn1c(SCCCC)nc2c1c(=O)[nH]c(=O)n2C | i | i | -6 | i | -1
c1ccc(CCc2nc(-c3cccnc3)no2)cc1 | i | i | -1 | i | -6
COC(=O)CSCc1nc2ccccc2[nH]c1=O | / | / | ? | / | -29
CCCCSc1nc(CCC)cc(=O)[nH]1 | i | i | -2 | i | 14
Cc1nc2ncnn2c(C)c1CCC(=O)N1CCc2ccccc21 | / | / | -6 | / | -3
O=C(C(Cc1ccccc1)n1cccc1)N1CCCCC1 (configuration not stated) | / | / | -4 | / | 1
CCOC(=O)N1CCN(C(=O)CSCC(=O)N=c2sc3ccccc3n2C)CC1 | / | / | -7 | / | -6
COc1ccc(C(=O)NCCC(C)C)cc1S(=O)(=O)N1CCOCC1 | i | i | 3 | i | -3
Cc1oc(-c2cccs2)[n+]([O-])c1C | / | / | 8 | / | -2
Cc1ccc(NS(=O)(=O)c2ccc3c(c2)oc(=O)n3C)cc1F | / | / | -2 | / | -7
COC(=O)Cn1nc(-c2ccccc2)c2ccccc21 | / | / | 2 | / | 5
CC(C)c1ccc(O)c(NC(=O)c2cncc(Br)c2)c1 | / | / | 7 | / | 0
O=C(O)[C@H](Cc1ccccc1)N1Cc2ccccc2C1=O | / | / | -10 | / | -2
CCCN(CCC)C(=O)CSc1nc2n[nH]c(C)c2c(=N)n1-c1ccc(OC)cc1 | / | / | 7 | / | -3
CCSc1nnc(NC(=O)CSc2nnc(Cc3cccn3C)n2CCc2ccccc2)s1 | / | / | 34* | / | -2
CCOc1ccc(-n2c(SC)nc3c(c2=O)SCC3)cc1 | / | / | 7 | / | -1
CN(Cc1ccco1)C(=O)C(Cc1ccccc1)NS(=O)(=O)c1ccc2c(c1)CCC(=O)N2 (configuration not stated) | / | / | 2 | / | -5
CC12C=CC3(CN(Cc4ccccc4)C(=O)C3C1C(=O)NCc1ccco1)O2 (configuration not stated) | / | / | -1 | / | -7
N#CC1=C(N)OC2=C(C(=O)CCC2)C1c1ccc(OC(=O)N2CCOCC2)cc1 (configuration not stated) | / | / | 3 | / | -4
COc1ccccc1-c1cc(C(F)(F)F)nc(N2CCN(c3ccc(F)cc3)CC2)n1 | / | / | -1 | / | -5
CN(CC(=O)N1CC=C(c2ccccc2)CC1)S(=O)(=O)c1cnc[nH]1 | / | / | -3 | / | -9
COc1ccc(OC)c(NS(=O)(=O)Cc2ccccc2)c1 | i | i | -2 | i | -1
CC(C(=O)OCn1nnc2ccccc2c1=O)N1C(=O)c2ccccc2C1=O (configuration not stated) | i | i | 6 | i | 0
Cc1ccc(S(=O)(=O)NCCn2c(C)cc3ccccc32)cc1 | / | / | 4 | / | 1
O=C(NCCc1ccccc1)c1noc2c1CCc1ccccc1-2 | / | / | 2 | / | 0
Cc1ccc(C)c(Cn2c(=O)n(CCCC(=O)NCc3ccco3)c(=O)c3ccccc32)c1 | / | / | 2 | / | 3
O=C(c1ccccc1)N1CCN(c2ccc(NCc3ccc4c(c3)OCO4)cc2)CC1 | / | / | 0 | / | -4
Cc1noc(NS(=O)(=O)c2ccc(NC(=O)CSc3nc4c(cc3C#N)CCCC4)cc2)c1C | / | / | 0 | / | -4
CCCC(=O)Nc1cc(C)c2c(=O)oc3ccccc3c2n1 | i | i | -5 | i | -1
CCC(C)NC(=O)CC(c1ccc(OC)cc1)n1cccc1 (configuration not stated) | / | / | 0 | / | -2
CCC(Sc1ccc(C(=O)O)cc1)C(=O)O (configuration not stated) | i | i | -10 | i | -6
CCOC(=O)CSc1nnc(CNC(=O)c2ccc(OC)cc2)n1C1CCCCC1 | / | / | 1 | / | 4
O=C(Nc1ccccc1)N1CCN(Cc2ccc3c(c2)OCO3)CC1 | / | / | -4 | / | 3
COc1cc2c(cc1OC)C(COc1ccc(F)cc1)N(C(=O)c1ccco1)CC2 (configuration not stated) | / | / | 4 | / | -3

Entries of single compounds, looked up by structure. Order of values: VCAM-1 down	VCAM-1 imaging	FPR ligand	VCAM-1 augmentation	FPRL1 ligand
Cc1ccc(S(=O)(=O)NCCn2c(C)cc3ccccc32)cc1 across the screens: /	/	4	/	1
CCOC(=O)c1ccccc1NC1c2ccccc2C(=O)N1C1CCN(C(=O)OCC)CC1 (configuration not stated) across the screens: i	i	12	i	-4
O=C(C1CCN(S(=O)(=O)N2CCOCC2)CC1)N1CCc2ccccc21 across the screens: /	/	2	/	-4

Continuation:
SMILES | VCAM-1 down | VCAM-1 imaging | FPR ligand | VCAM-1 augmentation | FPRL1 ligand
Cc1cc(C)n(Cc2cc(C)c(Cn3nc(C)cc3C)cc2C)n1 | i | i | -1 | i | -2
CCN1CCN(CCNC(=O)CS(=O)(=O)Cc2nc(-c3ccc(C)cc3)oc2C)CC1 | / | / | 3 | / | 1
CC1(C)C(=O)OC(c2cccs2)C(C)(C)C1=O (configuration not stated) | / | / | 4 | / | -1
CC1(C)CC(=O)C2=C(C1)Nc1ccccc1N=C2 | i | i | -10 | i | 0
CCOC(=O)CN1CC23C=CC(O2)C(C(=O)NCc2cccs2)C3C1=O (configuration not stated) | / | / | -18 | / | -7
CC1(C)CC(OC(=O)c2ccco2)CC(C)(C)N1O | / | / | 6 | / | -1
O=C(CSc1nc2ccccc2[nH]1)c1ccc2c(c1)OCO2 | i | i | -5 | i | -5
CCCc1nnc(NC(=O)CCC(=O)N2CCN(CCOc3ccc(C)cc3)CC2)s1 | i | i | 10 | i | -2
COc1ccc2cc3cc(C(=O)NCc4ccc5c(c4)OCO5)oc3nc2c1 | / | / | -6 | / | 1
N#CC1=C(N)Oc2n[nH]c(-c3ccc(F)cc3)c2C1c1ccncc1 (configuration not stated) | / | / | 6 | / | 13
COC(=O)c1cn(NC(=O)C2COc3ccccc3O2)c(=O)c2ccccc12 (configuration not stated) | / | / | 11 | / | 7
CCOc1ccc(CN2C(=O)c3ccccc3C2C(=O)NCc2cccnc2)cc1 (configuration not stated) | i | i | -3 | i | -2
O=C1Nc2ccccc2C(O)(C(=O)NCc2ccco2)N1c1ccc(Cl)c(Cl)c1 (configuration not stated) | / | / | 0 | / | -2
CCOc1ccc(N(CC(=O)NCc2ccccc2)S(=O)(=O)c2c(C)noc2C)cc1 | / | / | 10 | / | 3
COc1cc2[nH]c(=O)n(CCCC(=O)N3CC=C(c4ccccc4)CC3)c(=O)c2cc1OC | / | / | -5 | / | 10
CC(=O)NC(CCS(C)(=O)=O)C(=O)Nc1c(F)cccc1F (configuration not stated) | / | / | -3 | / | 12
Cc1cc(C(=O)OCC(=O)N2c3ccccc3CC2C)c(C)o1 (configuration not stated) | i | i | 8 | i | 2
COc1ccc(Cn2c(=O)[nH]c3cc(C(=O)NCCCN4CCCC4=O)ccc3c2=O)cc1 | / | / | 1 | / | -5
COc1ccc(CNC(=O)C2CCN(S(=O)(=O)N3CCOCC3)CC2)cc1 | / | / | -1 | / | 2
COc1ccc(CCNC(=O)C2CCCCC2C(=O)O)cc1OC (configuration not stated) | / | / | 0 | / | 3
Cc1ccc(C)c2[nH]c(=O)c(CN(CCN3CCCC3)C(=O)Nc3cccc(Cl)c3)cc12 | i | i | -2 | i | -3
Cc1ccc(-n2nnnc2SCC(=O)Nc2c(C)n(C)n(-c3ccccc3)c2=O)cc1 | i | i | -3 | i | -1
O=C(C1CCC1)N1CCc2cc(S(=O)(=O)N3CCCCC3)ccc21 | / | / | -4 | / | 1
CCCn1c(O)c(CN2CCCC(C)C2)c(C)c(C#N)c1=O (configuration not stated) | i | i | -4 | i | 4
COc1ccc(C2C3=C(CCCC3=O)Nc3nc(SCc4ccc(C(=O)O)cc4)nn32)cc1OC (configuration not stated) | / | / | -1 | / | 2
O=C(NCCN1CCN(c2ccccc2)CC1)C1(S(=O)(=O)c2ccc(Cl)cc2)CC1 | / | / | 0 | / | 2
Cc1ccc(NC(=O)C2CCCN2S(=O)(=O)c2ccc3c(c2)CCC(=O)N3)cc1Cl (configuration not stated) | / | / | -8 | / | -11
COc1ccc(CCNC(=O)c2nc3ncccn3n2)cc1OC | i | i | 3 | i | 0
CCCCCC(=O)N1CC2(C)CN(C(=O)CCCCC)CC(C)(C1)C2=O | i | i | -5 | i | -6
COc1ccc(N2C(=O)CSC2c2ccncc2)cc1 (configuration not stated) | / | / | -11 | / | -4
CC(=O)Nc1ccc(NC(=O)C2CCCN(c3nnc(-n4cccc4)s3)C2)cc1 (configuration not stated) | / | / | 1 | / | 5
O=c1cc(N2CCN(Cc3ccccc3)CC2)[nH]c(=O)n1Cc1ccc(F)cc1 | / | / | 6 | / | 4
CCOC(=O)CSc1nnc(-c2ccc(NS(=O)(=O)c3ccc(C)cc3)cc2)o1 | i | i | -2 | i | 1
COc1ccc(-c2cc(C(F)(F)F)nc(N3CCCCC3)n2)cc1OC | / | / | 10 | / | 33*
O=C(NCCc1ccccn1)c1ccc(COc2ccccc2)o1 | i | i | 0 | i | -7
COCCn1nnnc1C(c1ccc(OC)cc1)N1CCN(c2ccccc2F)CC1 (configuration not stated) | i | i | 5 | i | 7
Cc1nn(C)c(C)c1S(=O)(=O)N1CCC(C(=O)NCC2COc3ccccc3O2)CC1 (configuration not stated) | / | / | -5 | / | -5
CC1CCN(C(=O)CSc2nnc(Cc3ccccc3)o2)CC1 | / | / | -2 | / | 3
O=C(O)CCc1nc2cccnc2n1Cc1ccccc1 | / | / | -2 | / | -7
Cc1ccc(Cn2nnc3c(=O)n(Cc4cc(C)ccc4C)cnc32)cc1 | / | / | -5 | / | 8
COc1cccc(CNC(=O)Nc2cccs2)c1 | / | / | -3 | / | 12
COc1ccc(C(=O)Nc2cccc(-c3nc4ncccc4o3)c2C)cc1OC | i | i | -4 | i | -2
COC(=O)CCSCc1cn2cc(Cl)ccc2n1 | i | i | -5 | i | 1
CC1=C(C(=O)NC2CCCCC2C)C2(CCC(C)CC2)OC1=O (configuration not stated) | / | / | 1 | / | -2
COc1ccc(C)c2sc(N3CCCC3)nc12 | / | / | 2 | / | -4
FC(F)Oc1ccccc1C1CC(c2ccc(Br)s2)Nc2ncnn21 (configuration not stated) | / | / | 2 | / | 3
CC(C)(C)OC(=O)NCc1nc(N)n[nH]1 | / | / | 3 | / | 0
Cc1cc(C(=O)CN2C(=O)c3ccccc3C2=O)c(C)n1Cc1cccs1 | i | i | -7 | i | -5
CCOC(=O)c1cc(-c2nnc(-c3ccc(Cl)cc3)o2)c(C)nc1C | / | / | 0 | / | -2
O=C(NC1(C(=O)NC2CCCC2)CCCCC1)c1ccc2c(c1)OCO2 | / | / | -6 | / | 10
CCOc1cc(C#N)c(NC(=O)c2cccnc2)cc1OCC | / | / | 1 | / | 0
Cc1ccc(C(=O)Nc2ccc(Cl)cn2)cc1S(=O)(=O)N1CCOCC1 | i | i | 1 | i | -3
O=S(=O)(Nc1ccc2oc(-c3ccccc3)nc2c1)c1ccccc1 | / | / | 3 | / | -6
Cc1nc(-c2coc3cc(OCC(=O)O)ccc3c2=O)cs1 | i | i | 0 | i | 0

In the list so far, these have a tert-butyl group.
SMILES | VCAM-1 down | VCAM-1 imaging | FPR ligand | VCAM-1 augmentation | FPRL1 ligand
CC(C)(C)C1CCc2[nH]nc(C(=O)O)c2C1 (configuration not stated) | i | i | 6 | i | 4
CC(C)(C)OC(=O)NCc1nc(N)n[nH]1 | / | / | 3 | / | 0
